HIV Env fusion: inhibitors of HIV-1 Env-driven cell-cell fusion, primary screen, HeLa-JRFL effector, CEM21 target cells, luciferase; inhibition, % at 12.3 µM; 360,000 tested, 1.1% active;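 active = mean replicate inhibition score of at least 50 and every replicate individually at or above 50; inconclusive = only one of the two criteria met; inactive = mean below 50 and not all replicates reaching 50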;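 also: 0% = plate neutral controls and 100% = maraviroc near 300 nM; one replicate is shown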
MT1-MMP act inh: blockers of MT1-MMP proenzyme processing, primary screen, HT1080 RFP-PRO-GFP cells, GFP/RFP fluorescence | Matrix metalloproteinase-14 (Homo sapiens), P50281 | GFP/RFP ratio fluorescence, overnight; percent of plate control window, DMSO zero | GFP/RFP ratio change, % at 20 µM | 360,000 tested, 0.061% active;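 active = GFP/RFP ratio change of at least 30% with cell ATP level not reduced by more than half and red fluorescence within 50% of control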; also: strong numbers were not always called active
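Read-out: GFP/RFP fluorescence ratio; Test system: RFP-PRO-GFP reporter HT1080 cells; Compound dosing: single-point 20 µM compound, 1% DMSO; Times: overnight compound exposure at 37 °C.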
eIF4H FP inh: human eIF4H binding inhibitors, primary screen, translation initiation inhibitor project, biochemical, uHTS, fluorescence polarization | Eukaryotic translation initiation factor 4H (Homo sapiens), Q15056 | 290,000 tested, 0.94% active | eIF4H fluorescence polarization binding assay | inhibition, % at 35 µM;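 active = 50% or more with normal probe brightness, or confirmed in later tests; inconclusive = above 50% with abnormal brightness, or retests that disagree; inactive = below 50% or failed in later tests; about a fifth of its hits are not listed in these tables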;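 also: calls also rest on retests at 20 µM and on dose response follow-up; 0% = protein and probe with vehicle and 100% = probe without protein; strong numbers were not always called active; many hits fall short of the cut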
Yeast UUG start: modulators of yeast start codon fidelity, primary screen, whole organism, S. cerevisiae, single point, plate reader; activity score, % at 18.7 µM; S. cerevisiae UUG-firefly luciferase reporter, luminescence/redox ratio; 350,000 tested, 0.13% active;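 active = replicate mean at a twofold rise or more, about +100% in these data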;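 also: firefly luciferase made from a UUG start codon reports start codon fidelity; reporter light over untreated wells divided by growth signal over untreated wells; some hits fall short of that in this replicate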
Rce1 inh: yeast Rce1p protease inhibitors, primary screen, biochemical, fluorescence, cell-free homogeneous | CAAX prenyl protease 2 (Saccharomyces cerevisiae (strain ATCC 204508 / S288c)), Q03530 | yeast membranes, quenched prenylated peptide cleavage fluorescence | calls only | 290,000 tested, 0.27% active | AID 2563, 2010;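 active = fall in fluorescence gain of 50% or more versus controls, with final raw signal at or below 3038400; inconclusive = same 50% fall but final raw signal above 3038400; inactive = fall in fluorescence gain under 50%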;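 also: plate controls were neutral control wells for no effect and wells lacking membranes for full effect; tested at 10 µM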
Target sequence (Q03530 whole entry, looked up): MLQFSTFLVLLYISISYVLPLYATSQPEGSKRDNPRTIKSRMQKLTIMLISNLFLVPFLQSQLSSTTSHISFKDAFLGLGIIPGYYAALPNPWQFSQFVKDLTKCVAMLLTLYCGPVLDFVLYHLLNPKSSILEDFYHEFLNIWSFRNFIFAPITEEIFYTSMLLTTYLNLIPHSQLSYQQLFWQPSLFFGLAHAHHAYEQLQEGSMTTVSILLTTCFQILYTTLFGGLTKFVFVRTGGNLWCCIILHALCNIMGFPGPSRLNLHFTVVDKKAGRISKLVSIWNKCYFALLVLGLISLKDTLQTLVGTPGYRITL
CSC inhib: cancer stem cell viability inhibitors, primary screen, luminescence; cancer stem cell-like cells viability; inhibition, % at 7.5 µM; 300,000 tested, 1.1% active;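 active = mean at 75% or more and at least half the replicates too; inconclusive = mean and replicates disagree; tested in HMLE shEcad cells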;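 also: 0% = median of negative and 100% = median of positive control wells; the first replicate is given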
PABP FP inh: PABP poly(A) RNA binding inhibitors, primary screen, biochemical, fluorescence polarization, uHTS | 290,000 tested, 1% active | inhibition, % at 35 µM | AID 2014, 2009 | Polyadenylate-binding protein 1 (Homo sapiens), P11940;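 active = 50% or more with normal probe brightness, or confirmed in later tests; inconclusive = above 50% with abnormal brightness, or retests that disagree; inactive = below 50% or failed in later tests; about a fifth of its hits are not listed in these tables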;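 also: calls also rest on retests at 20 µM and on dose response follow-up; controls were probe without protein and protein plus probe with vehicle; some compounds called inactive have numbers as strong as hits; many hits fall short of the cut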
eIF4H FP inh retest: also measured in eIF4H FP inh; calls as there; inhibition, %; compound at 20 µM; confirmation average;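 mean of two retest wells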
PABP FP inh retest: second read-out of PABP FP inh, no call of its own (marks repeat the call); inhibition, %; compound at 20 µM; confirmation repeats;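 mean of two retest wells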
MT1-MMP act inh RFP: second read-out of MT1-MMP act inh, no call of its own (marks repeat the call); RFP signal change, %; measured here: RFP expression control read;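 0 = vehicle wells; hits needed this value within 50% of zero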
* hit, by the source's call; i = inactive; ? = inconclusive; . = not tested or not shown; & = joins results of further samples; [ ] = remark or other dose. The list is partial; the hit share may differ from the screen's.

SMILES	HIV Env fusion	MT1-MMP act inh	MT1-MMP act inh RFP	eIF4H FP inh	Yeast UUG start	Rce1 inh	CSC inhib	PABP FP inh	others
CC1(C(=O)Nc2cccc3ccccc23)CCN1C(=O)Cc1ccc(Cl)cc1Cl (centres undefined)	13	0	-4	.	-7	.	.	.
CCCc1nccn1S(=O)(=O)c1cc(OC)ccc1OC	-31	1	2	-12	-19	i	-3	0
O=C(NCCN1CCCCC1)c1ccc(/C=N/O)nc1	-36	-1	5	-7	-3	i	-8	0
CCc1ccc(OCC(=O)Nc2nnc(C3CCCC3)s2)cc1	-1	1	-2	7	-8	i	5	-6
COc1ccc(-c2csc(-n3cccn3)n2)cc1	-122	6	4	-1	.	i	5	-5
C/C(=N\Oc1cccc(F)n1)c1ccc(Cl)cc1Cl	.	0	5	2	-10	i	9	8
Fc1ccc(-n2nnc(-c3ccccc3Cl)n2)cc1	-5	2	1	-9	-14	i	-25	-8
O=C(CCS(=O)(=O)Cc1ccccc1F)NCCCN1CCCCC1	.	-4	2	-1	-9	i	-6	16
Cc1ccccc1N1CCN(S(=O)(=O)c2nnc(NC(=O)c3ccco3)s2)CC1	-4	-2	-3	15	2	i	34	18
O=C(Nc1cc(S(=O)(=O)N2CCOCC2)ccc1N1CCCC1)c1ccc(Cl)cc1	-162	-1	0	.	-2	.	.	.
COc1ccc(C2=NS(=O)(=O)N(C)C(C(=O)NCc3ccc4c(c3)OCO4)=C2)cc1	12	-5	2	22	0	i	2	-1
O=[N+]([O-])c1cccc(NN=Nc2ccccc2)c1	-74	-1	-4	-5	-31	i	68	3
COc1cc(OC)cc(C(=O)NCCNC(=O)c2ccccn2)c1	7	4	5	3	-5	i	-11	0
CC(=O)c1ccccc1NS(=O)(=O)c1c(C)nn(-c2ccccc2)c1C	16	-4	-8	-4	-11	i	-8	7
COc1ccc(-c2ccc(CCC(=O)O)n2-c2cc(OC)ccc2OC)cc1	-340	-7	-12	.	-17	.	.	.
CCOCCCNC(=S)NCCNc1nc2c(C)cccc2cc1C#N	.	3	3	-2	-9	i	.	2
Cc1ccc(C)c(NC(=O)CSc2ccc(S(=O)(=O)N3CCCC3)cn2)c1	.	2	-2	.	-17	.	-18	.
COc1ccc(CCN(C)Cc2c(O)ccc3cc(Br)ccc23)cc1OC	-2	-2	-5	-9	-4	i	-10	-6
Nc1nc(N2CCN(C(=O)c3ccco3)CC2)nc2ccc(Br)cc12	.	-7	-4	-10	.	i	0	-3
CCc1ccc(/C=C2/SC(=S)N(CC(=O)Nc3nc4ccccc4s3)C2=O)cc1	.	4	6	-7	-12	i	18	-6
CCOc1cc(C=C(C#N)C#N)ccc1Oc1ccc([N+](=O)[O-])cn1	-9	-4	-4	-6	.	i	-19	-18
CC(C)OC(=O)CCC1(C(=O)O)CCC(=O)NC1 (centres undefined)	.	0	2	28	-15	i	-19	7
CC(C)CN(C1CCS(=O)(=O)C1)S(=O)(=O)c1ccc2ccccc2c1 (centres undefined)	0	1	3	.	-12	i	-4	.
CCCCN1C[C@H](Cc2ccccc2)[C@@H](CC(=O)NCc2ccc(OC)cc2)C1=O	-14	.	.	-14	0	i	-6	5
Cn1c(SCC(=O)c2ccccc2)ncc(C(=O)Nc2ccccc2)c1=O	-16	0	0	.	-7	i	-13	.
Clc1cccc(-c2ccc(C=Nc3ccc(N4CCOCC4)cc3)o2)c1	-192	16	8	3	.	i	-9	0
O=C(COC(=O)c1cccc(Cl)c1)Nc1cc(Cl)ccc1Oc1ccccc1	-31	1	0	-7	.	i	15	-7
CCC(CC)NC(=O)CN1CCN(S(=O)(=O)c2cccs2)CC1	-6	2	2	.	-9	.	.	.
CCOc1ccc(S(=O)(=O)Nc2ccc(C(=O)N/N=C/c3c(C)nn(-c4ccccc4)c3N3CCCC3)cc2)cc1	18	-7	-6	-5	.	i	-11	62	eIF4H FP inh retest=20;PABP FP inh retest=40
NNc1nnc2c3cc(F)ccc3n(Cc3ccccc3)c2n1	43	9	7	-3	.	i	17	-1

As a working copy, part of the list above.
SMILES	HIV Env fusion	MT1-MMP act inh	MT1-MMP act inh RFP	eIF4H FP inh	Yeast UUG start	Rce1 inh	CSC inhib	PABP FP inh	others
CC(C)OC(=O)CCC1(C(=O)O)CCC(=O)NC1 (centres undefined)	.	0	2	28	-15	i	-19	7
CC(C)CN(C1CCS(=O)(=O)C1)S(=O)(=O)c1ccc2ccccc2c1 (centres undefined)	0	1	3	.	-12	i	-4	.

Remaining list, next part:
SMILES	HIV Env fusion	MT1-MMP act inh	MT1-MMP act inh RFP	eIF4H FP inh	Yeast UUG start	Rce1 inh	CSC inhib	PABP FP inh	others
Cn1cnc(S(=O)(=O)Nc2cc(-c3ccc(Cl)cc3)nn2C)c1	-4	1	6	-8	-11	i	-2	9
CC(C)(C)C(=O)CSc1nccc(=O)[nH]1	.	6	0	-1	16	i	-12	-2
CCC(=O)N1CCc2cc(S(=O)(=O)CCC(=O)O)ccc21	.	15	10	17	-2	i	-5	10
O=C(Nc1ccccc1Cl)c1cc(C2CCCN(C(=O)C3CCCCC3)C2)on1 (centres undefined)	-12	-6	-14	.	-4	.	.	.
CC(C)Cc1nnc(NS(=O)(=O)c2ccc([N+](=O)[O-])cc2)s1	-5	4	-1	2	-6	i	1	-9
O=C(NCCC(=O)N1CCN(S(=O)(=O)c2ccccc2)CC1)c1ccc(Br)cc1	-41	1	4	.	-1	i	9	.
CCc1nc2ccc(C(=O)NCCCN3CCCC3=O)cn2c1N(C)C(=O)Nc1ccccc1OC	23	3	3	.	-13	.	.	.
Cc1nn(S(=O)(=O)c2ccccc2)c(C)c1S(=O)(=O)N1CCOCC1	-1	2	2	-19	0	i	22	7
COC(=O)c1ccc(NC(=O)C(=O)N2CCN(C(=S)Nc3ccc(C)cc3)CC2)cc1	-6	1	-1	2	.	i	-11	-1
COc1ccc(S(=O)(=O)Nc2cccc3c2O[C@H](CN(C)C(=O)NC(C)C)[C@@H](C)CN([C@H](C)CO)C3=O)cc1	3[16.7 µM]	1	2	.	11&12	.	.	.
CC1=CC(C)(C)N(S(=O)(=O)c2ccc(C)cc2)c2cc(C)ccc21	.	5	-3	6	-18	i	66	-2
Cc1cc2c(OCC(O)CN3CCCC3)cccc2[nH]1 (centres undefined)	7	0	4	-14	-32	i	-4	27
Cc1ccc2c(c1)C(=O)CCCCC(=O)N2	-16	0	2	9	.	i	-4	18
O=C(CCc1ccccc1)n1nc(-c2ccccc2)nc1NCc1ccco1	.	3	1	-9	.	i	-9	9
CC(NS(=O)(=O)c1ccc(Cl)c(Cl)c1)C(=O)Nc1cccnc1 (centres undefined)	.	-2	-5	.	-33	.	-19	.
CC1CCCCN1CCNC(=O)C1CCN(S(=O)(=O)N2CCCCC2)CC1 (centres undefined)	.	-9	4	4	-40	i	15	12
ON=C1c2ccccc2-c2ccc(F)cc21	-10	0	2	.	-15	.	.	.
Cc1cccc(C2c3[nH]c4ccccc4c3CCN2C(=O)c2cc(C(C)C)nc(N)n2)n1 (centres undefined)	-7	-2	2	0	.	i	-2	-2
CCOc1ccc(OCC(=O)N2CCOCC2)cc1	.	-5	-1	0	-11	i	-13	3
CCC(=O)c1ccc(OCC(=O)Nc2ccc(S(=O)(=O)Nc3cc(C)nc(C)n3)cc2)cc1	-102	-2	4	.	-14	.	-14	.
CN(C)c1nnnn1-c1ccc(OC(F)(F)F)cc1	-10	-1	2	7	.	i	-26	0
O=S1(=O)CC2N=C(N(Cc3ccc(F)cc3Cl)c3ccccc3F)SC2C1 (centres undefined)	40	2	-5	-9	.	i	12	-4
CCC(CC)c1nc(NCCC(=O)O)c2ccccc2n1	-45	2	-1	2	-50	i	-4	2
N#C/C(=C\c1ccncc1)c1ccc(NC(N)=O)cc1	-19	-4	-4	-2	-12	i	-2	8
CNc1ccc(S(=O)(=O)NCC(=O)NCCCc2ccccc2)cc1[N+](=O)[O-]	54	1	2	-6	-1	i	-7	10
Cc1ccnc(SCCn2c(N3CC(C)CC(C)C3)nc3c2c(=O)n(C)c(=O)n3C)n1 (centres undefined)	-43	-2	6	7	-4	i	-23	4
CCS(=O)(=O)c1ccc2oc(Nc3ccc(OC)c(OC)c3)nc2c1	2	3	1	6	-27	i	-15	11
Cc1ccc(/C=N/NC(=O)NC2CCCCC2)o1	15	1	4	-14	.	i	-3	-5
CCCCC(c1nnnn1Cc1ccco1)N1CCN(C(=O)c2ccco2)CC1 (centres undefined)	-54	-2	5	-1	-6	i	-6	5
COc1ccc(Cc2nnc(NC(=O)c3c(-c4ccccc4)noc3C)s2)cc1	.	1	0	-18	-6	i	3	-4
COc1ccc(NC(=O)CSc2nnc(C3CC3)n2C)cc1	-6	-4	1	-7	.	i	-7	-3
CCOC(=O)c1[nH]c(COC(=O)CCOc2ccccc2OC)c(C(=O)OCC)c1C	-54	-4	1	-1	-13	i	-9	3
CCOC(=O)C1CCCN(CC(=O)c2c[nH]c3ccc(C)cc23)C1 (centres undefined)	23	.	.	3	.	.	-9	-2
Cc1ccc(NCc2nnc(SCC(=O)c3ccccc3)o2)c(C)c1	-74	-1	0	-3	-17	i	-4	1
CNc1c(NC(=O)COc2ccc(Cl)cc2)c(=O)oc2ccccc12	3	3	4	-9	-15	i	-1	-6
COc1ccc(CCN2C(=NC(=O)CCC(=O)O)SC3CS(=O)(=O)CC32)cc1OC (centres undefined)	-26	0	-1	0	-11	i	-22	-14
COc1ccccc1N1CCN(c2cc(=O)n(-c3ccccc3Cl)c(=O)[nH]2)CC1	.	10	3	-4	15	i	-5	-1
CCOC(=O)/C(=C/c1ccc(OC(F)F)cc1)C1=Nn2c(nnc2-c2ccc(Cl)cc2)SC1	-210	-26	-34	.	-15	.	.	.
CS(=O)(=O)N(Cc1ccc(C(=O)NN=C2CCCCCC2)cc1)c1ccccc1	20	-7	2	6	5	i	-7	6
COC(=O)c1[nH]c(C)c(/C(O)=C2\C(=O)C(=O)N(CCN3CCOCC3)C2c2ccc(C)o2)c1C (centres undefined)	-7	3	3	1	-12	i	4	-4
CCOC(=O)C1=C(C)NC(=O)NC1c1ccc(N2CCC(c3ccccc3)=N2)cc1 (centres undefined)	-133	-8	11	?	-2	i	.	?
CC1(C)Cc2ccccc2-c2c1c(=O)n(Cc1ccccc1)c1nnnn21	20	3	-3	1	.	.	46	5
O=C(NCc1cccnc1)c1cc(S(=O)(=O)N2CCCC2)c(Cl)cc1Cl	17	2	-1	-15	-8	i	.	4
Cc1cc(Br)cc(C)c1OCCCCN(C)C	-16	5	2	6	-17	i	40	-2
COC(=O)c1c(C)nn(-c2ccc(F)c(Cl)c2)c1-c1cc(C)on1	11	3	-11	1	.	i	0	-5
COc1ccc(-c2nc3n(n2)C(c2cccnc2)C(C(N)=O)=C(C)N3)cc1 (centres undefined)	-30	7	5	.	-1	i	0	.
COc1ccc(CCNS(=O)(=O)c2ccc(N3CCCC3=O)cc2)cc1	.	1	-9	.	-2	i	-16	.
COc1ccc(NC(=S)N2CCN(c3ccc4c(c3)C3CCN(C(=O)OCc5ccccc5)C4C3)CC2)c(OC)c1 (centres undefined)	?	2	-25	.	-7	.	.	.
